# Vaccinia inh – blocks a specific stage of Vaccinia orthopoxvirus infection, primary screen, cell-based, single point. Vaccinia-infected cells, mCherry/Venus stage reporter fluorescence; active compounds read low; some inactives read as strong as hits. activity change (mCherry), % (test concentration not listed). 0.01% of 89,000 active. AID 1053133, 2014;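 active means mCherry past -33% and 40 or more points under the early reporter, replicates agreeing; inconclusive means past -33% without that gap or agreement; tested in A549 cells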;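 further: scaled between vehicle wells and reference inhibitor wells; 23 nL library stock went into each well; one replicate is shown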
# Vaccinia inh Venus – recorded beside Vaccinia inh, whose call it bears; activity change (Venus), %; measured here: Venus reporter, other viral stage;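 negative = less Venus signal; first of two replicates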
# * = called active by the depositor; ? = inconclusive; · = no result given. This is a subset (hit frequency here may not be typical).
SMILES | Vaccinia inh | Vaccinia inh Venus
O=C(O)[C@@H]1[C@@H](CO)[C@@H]2Cn3c(ccc(-c4ccccc4)c3=O)[C@H]1N2CC1CCCCC1 | 12.7 | 10.2
N#C[C@H]1[C@H](c2ccccc2C2=CCCCC2)[C@H](CO)N1C(=O)c1cccc(F)c1 | -2.5 | -7.8
Cc1ccc(S(=O)(=O)N[C@H]2CC[C@@H](CCNC(=O)C3CCC3)O[C@@H]2CO)cc1 | -27.2 | -18.8
COc1ccc(NC(=O)N(C)C[C@@H]2OCCCC[C@@H](C)Oc3ccc(NS(C)(=O)=O)cc3C(=O)N([C@@H](C)CO)C[C@H]2C)cc1 | 12.1 | 2.5
CN1C(=O)c2cc(NC(=O)Cc3ccccc3)ccc2OC[C@H]2O[C@H](CC(=O)O)CC[C@@H]21 | 5.3 | 5.0
C[C@@H]1CN([C@H](C)CO)C(=O)c2cc(-c3cncnc3)cnc2O[C@@H]1CN(C)Cc1ccc(F)cc1 | 6.8 | 3.3
O=C1CN(Cc2ccc(F)cc2)C[C@@H]2[C@@H](c3ccc(-c4cccnc4)cc3)[C@@H](CO)N12 | -1.9 | -5.2
CNC[C@@H]1Oc2ncc(C#CCN(C)C)cc2C(=O)N([C@H](C)CO)C[C@@H]1C | 12.2 | 9.5
O=C(C1CC1)N1CC(=O)N2[C@H](CO)[C@H](c3ccc(C#Cc4cccc(F)c4)cc3)[C@H]2C1 | ? | ·
C[C@@H]1CN([C@@H](C)CO)C(=O)CCCn2cc(nn2)CO[C@H]1CN(C)CC1CC1 | -4.2 | 3.8
C[C@H]1CN([C@@H](C)CO)C(=O)c2c(c3ccccc3n2C)-c2ccccc2CO[C@H]1CN(C)C(=O)Nc1cccc(C(F)(F)F)c1 | ? | ·
CC=Cc1ccc2n(c1=O)C[C@@H]1[C@@H](CO)[C@H](C(=O)NCC3CC3)[C@H]2N1C(=O)CC (mixture of isomers) | 4.4 | -0.4
COCC(=O)Nc1ccc2c(c1)C(=O)N(C)C[C@H](OC)[C@H](C)CN(Cc1ccccc1F)[C@@H](C)CO2 | -19.2 | -10.2
CCC(=O)N(C)C[C@@H]1Oc2cc(-c3ccccc3OC)ccc2S(=O)(=O)N([C@@H](C)CO)C[C@H]1C | -4.8 | 6.4
C[C@@H]1CCCCO[C@H](CN(C)S(=O)(=O)c2ccccc2)[C@@H](C)CN([C@@H](C)CO)C(=O)c2cc(NS(=O)(=O)c3cn(C)cn3)ccc2O1 | 3.0 | -1.0
COc1ccc(NC(=O)N(C)C[C@H]2Oc3ccc(NS(=O)(=O)c4cccs4)cc3C(=O)N([C@@H](C)CO)C[C@@H]2C)cc1 | -3.8 | -4.9
COC(=O)[C@@H]1[C@@H](CO)[C@@H]2Cn3c(ccc(-c4cccc(F)c4)c3=O)[C@H]1N2Cc1ccccc1 | -1.3 | 5.0
CCC(=O)N1CC2(CN(C(=O)Nc3ccccc3F)C2)c2c([nH]c3cc(OC)ccc23)[C@@H]1CO | -5.0 | -10.8
CCCNC(=O)N1CC2(CN(S(=O)(=O)CC)C2)c2c([nH]c3cc(OC)ccc23)[C@@H]1CO | 11.1 | 5.8
C[C@H]1CN([C@@H](C)CO)C(=O)c2c(c3ccccc3n2C)-c2ccccc2CO[C@@H]1CN(C)S(=O)(=O)c1cn(C)cn1 | -11.6 | -13.1
CC(C)CC#Cc1cnc2c(c1)C(=O)N([C@H](C)CO)C[C@@H](C)[C@@H](CN(C)C(=O)Cc1cccnc1)O2 | -5.4 | 3.7
COc1ccc(-c2ccc3c(c2)O[C@H](CN(C)C(=O)Nc2ccccc2F)[C@@H](C)CN([C@@H](C)CO)S3(=O)=O)cc1 | ? | ·
CCC(=O)N(C)C[C@H]1Oc2ncc(-c3ccc(C#N)cc3)cc2C(=O)N([C@H](C)CO)C[C@H]1C | 18.4 | 12.2
Cc1ccccc1S(=O)(=O)N1CC[C@@H]2[C@H](CO)Nc3ccc(-c4ccc(C#N)cc4)cc3[C@@H]21 | -23.7 | -29.3
COc1ccc2c3c([nH]c2c1)[C@H](CO)N(C(=O)Nc1ccc(F)cc1)CC31CCN(C(=O)c2ccccc2F)CC1 | ? | ·
COc1ccc(-c2ccc3n(c2=O)C[C@H]2[C@H](CO)[C@@H](C(=O)NC4CCC4)N(S(C)(=O)=O)[C@@H]32)cc1 | -1.3 | 6.3
O=C(C[C@@H]1C[C@H]2c3cc(NC(=O)NC4CCCC4)ccc3O[C@H]2[C@@H](CO)O1)NCc1ccc(-c2ccccc2)cc1 | 4.5 | 2.8
C[C@H]1CCCCO[C@H](CN(C)Cc2ccc(C(F)(F)F)cc2)[C@@H](C)CN([C@@H](C)CO)C(=O)c2cc(NC(=O)c3ccncc3)ccc2O1 | ? | ·
CCNC(=O)C[C@H]1CC[C@H]2[C@H](COc3ccc(NC(=O)Nc4ccccc4F)cc3C(=O)N2C)O1 | 12.4 | 11.9
C[C@@H]1CCCCO[C@H](CN(C)C(=O)Nc2ccc(F)cc2)[C@H](C)CN([C@@H](C)CO)C(=O)c2cc(NC(=O)Nc3ccc4c(c3)OCO4)ccc2O1 | 5.2 | -1.8
C[C@@H]1CN([C@@H](C)CO)C(=O)c2cc(NC(=O)Nc3cccc4ccccc34)ccc2O[C@@H]1CN(C)S(=O)(=O)c1ccccc1 | -4.6 | -0.8
COC(=O)[C@@H]1[C@@H](CO)[C@@H]2Cn3c(ccc(C4=CCCCC4)c3=O)[C@@H]2N1CCC(F)(F)F | 5.0 | 2.8
CCNC(=O)C[C@@H]1CC[C@@H]2[C@H](COC[C@H](O)CN2C(=O)C2CCCC2)O1 | 12.5 | 5.7
C[C@H](CO)N1C[C@H](C)[C@@H](CN(C)Cc2ccncc2)Oc2ncc(C#CCN(C)C)cc2C1=O | 8.1 | 8.4
C[C@@H]1CCCCO[C@H](CN(C)Cc2ccncc2)[C@H](C)CN([C@@H](C)CO)C(=O)c2cc(NS(C)(=O)=O)ccc2O1 | 3.6 | 0.7
C[C@H](CO)N1C[C@H](C)[C@H](CN(C)C)Oc2ccc(NC(=O)Nc3ccc4c(c3)OCO4)cc2C1=O | 15.1 | 0.9
O=C(NCC[C@H]1CC[C@@H](NC(=O)Nc2cc(F)ccc2F)[C@H](CO)O1)Nc1ccc(F)cc1 | -12.9 | -11.3
Cc1ccccc1-c1ccc([C@@H]2[C@H](CO)N3CCCCN(C(=O)Cc4ccccn4)C[C@@H]23)cc1 | -12.9 | -12.0
C[C@H](CO)N1C[C@H](C)[C@H](CN(C)C(=O)C2CCC2)Oc2ncc(C#CC3(O)CCCC3)cc2C1=O | 17.9 | 4.5
C[C@@H]1CN([C@@H](C)CO)C(=O)Cc2cc(NS(C)(=O)=O)ccc2O[C@@H]1CN(C)S(=O)(=O)c1cccs1 | 3.7 | 4.1

# The results go on.
smiles	Vaccinia inh	Vaccinia inh Venus
C[C@@H]1CN([C@@H](C)CO)C(=O)c2cc(C3=CCCCC3)cnc2O[C@@H]1CN(C)C(=O)c1cccnc1	1.2	-3.8
C[C@H]1CN([C@@H](C)CO)C(=O)Cc2cc(NC(=O)Nc3ccc4c(c3)OCO4)ccc2O[C@H]1CN(C)CC1CCCCC1	-18.9	-11.5
O=C(C[C@@H]1CC[C@H](NS(=O)(=O)c2ccc(F)cc2)[C@H](CO)O1)NCc1ccccc1F	1.3	4.5
CO[C@@H]1CN(C)C(=O)c2cc(NS(=O)(=O)c3cn(C)cn3)ccc2OC[C@H](C)N(CCC(F)(F)F)C[C@@H]1C	7.6	8.3
Cc1ccccc1-c1ccc([C@@H]2[C@@H](CO)N3CCCCN(S(C)(=O)=O)C[C@H]23)cc1	2.2	-1.3
COc1ccc(NC(=O)N2C[C@@H]3N[C@H](C2)C3c2ccc(-c3cccnc3)cc2)cc1 (stereo partly drawn)	?	·
C[C@@H]1CN([C@H](C)CO)C(=O)c2cc(C#CC3CC3)cnc2O[C@@H]1CN(C)C(=O)c1ccc(F)cc1	15.8	21.9
O=C(C[C@@H]1C=C[C@H](NC(=O)Cc2cccnc2)[C@H](CO)O1)Nc1ccccc1	5.7	9.9
O=C(C[C@H]1C[C@H]2c3cc(NC(=O)C4CCOCC4)ccc3O[C@H]2[C@@H](CO)O1)NC1CCCC1	5.3	3.3
COc1ccc(S(=O)(=O)Nc2ccc3c(c2)CC(=O)N([C@H](C)CO)C[C@@H](C)[C@H](CN(C)C)O3)cc1	1.7	-4.1
O=C(C[C@@H]1C=C[C@@H](NS(=O)(=O)c2ccccc2)[C@@H](CO)O1)NCCN1CCCCC1	0.6	-2.0
C[C@H]1CN([C@@H](C)CO)C(=O)c2cc(NS(=O)(=O)c3ccc(F)cc3)ccc2O[C@@H]1CN(C)C(=O)Nc1ccccc1	19.0	10.6
C[C@H](CO)N1C[C@H](C)[C@H](CN(C)Cc2ccncc2)Oc2cc(-c3cccnc3)ccc2S1(=O)=O	1.4	-7.9
O=C(C1CCC1)N1CC[C@@H]2[C@H]1c1cc(Br)ccc1N[C@@H]2CO	-19.9	-14.5
O=C(c1ccncc1)N1C[C@@H]2[C@H](c3ccccc31)[C@H](CO)N2Cc1ccccc1F	1.3	5.8
C[C@H](CO)N1C[C@H](C)[C@H](CN(C)C(=O)c2ccncc2)OCCCC[C@H](C)Oc2ccc(NC(=O)c3ccncc3)cc2C1=O	27.4	9.0
Cn1cnc(S(=O)(=O)N2CC[C@@H]3[C@H]2c2cc(C#Cc4ccc(F)cc4)ccc2N[C@@H]3CO)c1	-19.9	-9.2
CCCC#Cc1cnc2c(c1)C(=O)N([C@H](C)CO)C[C@H](C)[C@H](CN(C)Cc1ccc(F)cc1)O2	-21.6	-10.2
O=C(C[C@H]1C=C[C@@H](NC(=O)CN2CCOCC2)[C@@H](CO)O1)NC1CCCCC1	-1.3	0.8
COc1cccc(-c2ccc([C@@H]3[C@@H](CO)N4C(=O)CN(C(=O)C5CCOCC5)C[C@@H]34)cc2)c1	?	·
CN1C(=O)c2cc(NC(=O)C3CCCCC3)ccc2OC[C@H]2O[C@H](CC(=O)NCc3ccccc3F)CC[C@@H]21	1.9	6.4
C[C@@H]1CCCCO[C@@H](CN(C)C(=O)c2ccncc2)[C@H](C)CN([C@@H](C)CO)C(=O)c2cc(NC(=O)c3ccncc3)ccc2O1	14.7	5.7
C[C@@H]1CCCCO[C@H](CN(C)C(=O)CCCN(C)C)[C@H](C)CN([C@@H](C)CO)C(=O)c2cc(NC(=O)Cc3ccccc3)ccc2O1	19.4	13.8
C[C@@H]1CN([C@@H](C)CO)S(=O)(=O)c2ccc(C#CC3CC3)cc2O[C@@H]1CN(C)Cc1ccccc1	-30.1	-22.6
CC(C)CC#Cc1ccc([C@@H]2[C@@H](CO)N3C(=O)CN(C(=O)Cc4ccccc4)C[C@H]23)cc1	?	·
CCCNC(=O)N(C)C[C@H]1Oc2cc(C#C[C@H](C)O)ccc2S(=O)(=O)N([C@@H](C)CO)C[C@@H]1C	16.5	4.7
N#C[C@H]1N[C@@H](CO)[C@@H]1c1ccc(-c2ccccc2F)cc1	-31.9	-24.5
O=C(Cc1ccccn1)N1CC(=O)N2[C@@H](CO)[C@H](c3ccc(-c4ccc(F)cc4)cc3)[C@@H]2C1	8.5	6.6
CCC(=O)N(C)C[C@@H]1Oc2cc(-c3cccc(C#N)c3)ccc2S(=O)(=O)N([C@H](C)CO)C[C@H]1C	24.8	16.2
C[C@H]1CN([C@@H](C)CO)C(=O)Cc2cc(NS(C)(=O)=O)ccc2O[C@H]1CN(C)Cc1ccccc1	-5.8	-2.3
COc1ccc2c3c(n(C)c2c1)[C@@H](CO)N(C)CC31CCN(C(=O)Nc2c(C)noc2C)CC1	16.5	6.2
CCCNC(=O)Nc1ccc2c(c1)OC[C@@H](C)N(CCC)C[C@@H](C)[C@@H](OC)CN(C)C2=O	14.9	21.0
Cc1ccc(S(=O)(=O)N[C@H]2C=C[C@H](CC(=O)N3CCC(Cc4ccccc4)CC3)O[C@H]2CO)cc1	?	·
Cc1ccc(S(=O)(=O)Nc2ccc3c(c2)CC(=O)N([C@H](C)CO)C[C@@H](C)[C@@H](CN(C)Cc2ccc(Cl)c(Cl)c2)O3)cc1	?	·
CN1C(=O)c2cc(NC(=O)C3CCCC3)ccc2OC[C@H]2O[C@@H](CC(=O)Nc3ccccc3)CC[C@H]21	-3.8	4.3
C[C@H](CO)N1C[C@H](C)[C@@H](CN(C)Cc2ccc(Cl)c(Cl)c2)Oc2ccc(NC(=O)Nc3ccc4c(c3)OCO4)cc2C1=O	-11.7	-14.8
COc1cccc(C(=O)Nc2ccc3c(c2)OC[C@H](C)NC[C@@H](C)[C@@H](OC)CN(C)C3=O)c1	-18.1	-13.2

# Looked up by structure from above:
smiles	Vaccinia inh	Vaccinia inh Venus
COc1ccc2c3c(n(C)c2c1)[C@@H](CO)N(C)CC31CCN(C(=O)Nc2c(C)noc2C)CC1	16.5	6.2
COc1cccc(C(=O)Nc2ccc3c(c2)OC[C@H](C)NC[C@@H](C)[C@@H](OC)CN(C)C3=O)c1	-18.1	-13.2
Cc1ccc(S(=O)(=O)N[C@H]2C=C[C@H](CC(=O)N3CCC(Cc4ccccc4)CC3)O[C@H]2CO)cc1	?	·
C[C@H](CO)N1C[C@H](C)[C@@H](CN(C)Cc2ccc(Cl)c(Cl)c2)Oc2ccc(NC(=O)Nc3ccc4c(c3)OCO4)cc2C1=O	-11.7	-14.8
CN1C(=O)c2cc(NC(=O)C3CCCC3)ccc2OC[C@H]2O[C@@H](CC(=O)Nc3ccccc3)CC[C@H]21	-3.8	4.3
Cc1ccc(S(=O)(=O)Nc2ccc3c(c2)CC(=O)N([C@H](C)CO)C[C@@H](C)[C@@H](CN(C)Cc2ccc(Cl)c(Cl)c2)O3)cc1	?	·
CCCNC(=O)Nc1ccc2c(c1)OC[C@@H](C)N(CCC)C[C@@H](C)[C@@H](OC)CN(C)C2=O	14.9	21.0

# Compound activity from PubChem BioAssay.
